# VDR inhibitor = Inhibitors of the vitamin D receptor (VDR): qHTS; hit rate 0.93% among 400,000; Vitamin D3 receptor (Homo sapiens), P11473; AID 504847, 2011; VDR-SRC2-3 peptide fluorescence polarization, 2 h; Potency, µM, inactives show max response, negative = inhibition, actives largely listed as inhibitors; active = well fitted inhibition curve with a large enough effect; inconclusive = small, poorly fitted or top-dose-only effect, or another doubt; inactive = no such curve, though single readings can be large or run the other way; also: series mostly up to about 120 µM
# Target sequence (P11473 whole entry, looked up): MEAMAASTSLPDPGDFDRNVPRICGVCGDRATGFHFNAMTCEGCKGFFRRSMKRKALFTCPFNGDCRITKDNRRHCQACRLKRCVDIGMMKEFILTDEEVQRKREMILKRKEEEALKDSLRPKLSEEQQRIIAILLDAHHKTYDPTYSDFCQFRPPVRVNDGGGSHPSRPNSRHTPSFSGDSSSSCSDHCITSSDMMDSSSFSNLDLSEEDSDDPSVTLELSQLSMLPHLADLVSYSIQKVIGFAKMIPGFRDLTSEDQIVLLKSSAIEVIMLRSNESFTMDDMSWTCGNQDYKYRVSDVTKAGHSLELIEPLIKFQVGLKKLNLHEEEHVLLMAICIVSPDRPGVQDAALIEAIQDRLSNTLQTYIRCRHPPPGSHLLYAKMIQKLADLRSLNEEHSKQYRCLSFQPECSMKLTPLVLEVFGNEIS
#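 Reagent solutions, kept cold and dark, are dispensed first; compounds are then pinned in at 23 nl, plates briefly spun, and incubated 2 h at ambient temperature. Inhibition of VDR–SRC2-3 peptide binding is read by fluorescence polarization.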
# * = called active by the depositor; ? = inconclusive; [ ] = dose if it differs, or a comment. % is scaled to controls: 0 for no effect and ±100 for the full control effect; potency is read from the fitted curve at half-maximal effect.
SMILES,VDR inhibitor
Cc1nnc(SCC2=C(C(=O)O)N3C(=O)C(NC(=O)c4cccc(F)c4F)C3SC2)s1 (stereo not drawn),?
COc1ccc(N2CC(C(=O)N[C@@H](C)C(=O)NCc3ccccc3OC)CC2=O)cc1 (stereo partly drawn),2.5%
O=C(COc1cccc(NC(=O)c2cccc([N+](=O)[O-])c2)c1)c1ccc(F)cc1,15.4%
COc1cccc(NC(=O)CN(C)C(=O)c2cccc(S(=O)(=O)Nc3ccc(C)cc3)c2)c1,50.7%[activator]
O=C(C1CCN(S(=O)(=O)c2ccccc2)CC1)N1CCc2ccccc21,-2.4%
COc1ccc(CNc2nc(-c3ccc(OC)c(OC)c3)cc(C(F)(F)F)n2)cc1,11.3%
CN1CCN(NC(=O)Nc2cccc(Cl)c2Cl)CC1,22.8%
CC(NC(=O)c1ccc(NC2=NC3CS(=O)(=O)CC3S2)cc1)c1ccccc1 (stereo not drawn),-18.0%
COc1cc2ccccc2cc1C(=O)Nc1ccccc1N1CCN(S(C)(=O)=O)CC1,4.4%
O=C(NNC(=O)C1CCCO1)c1ccc(F)cc1 (stereo not drawn),-3.8%
O=c1oc(-c2ccco2)nc2sc3c(c12)CCCCC3,-6.6%
COC(=O)[C@H](CC(C)C)NC(=O)NCCCc1ccccc1,-4.6%
O=C(/C=C/c1cccs1)N1CCN(c2ccccc2F)CC1,-12.4%
COC(=O)C1=C(C)NC(=O)/C1=C\c1cc(C)n(-c2c(C)cccc2C)c1C,2.6%
CCC1CCCCN1CCCNC(=O)C1CCCN(c2ncnc3c2nc2n3CCCCC2)C1 (stereo not drawn),-28.3%
CCCCCN(C(=O)NC(=O)Nc1ccc(C)cc1)S(=O)(=O)c1ccccc1,-8.2%
COCCCn1c(=O)c2sccc2n(Cc2ccc(C)cc2)c1=O,13.9%
Cc1cc(OCC(=O)NC2CCN(Cc3ccccc3)CC2)c2c(C)c(C)c(=O)oc2c1,10.6%
COc1cc(OC)cc(C(=O)NC(=S)N2CCCCCC2)c1,?
COC(=O)c1c(-c2ccccc2)csc1N1C(=O)Nc2ccccc2N1O,-1.9%
OCCN1CCN(C(c2ccc(Cl)cc2Cl)c2sc3nc(-c4ccco4)nn3c2O)CC1 (stereo not drawn),8.3%
Cc1nn(CC(=O)Nc2ccc(C(=O)N3CCCCC3)cc2)c(=O)c2ccccc12,3.1%
Cc1cccc(-n2ncc3c2CCCC3NC(=O)CCN2CCCCO2)c1C (stereo not drawn),-5.9%
CCN1CCN(C(=O)c2c(-c3c(Cl)cccc3Cl)noc2C)CC1,11.8%
COc1ccc(-c2cc(-c3cccs3)nc(OC)c2C#N)cc1OC,13.6%
CCCOc1ccc(N2C(=O)CC(NCc3cccnc3)C2=O)cc1 (stereo not drawn),-7.1%
COc1ccc(C(=O)NC2CCN(CC(=O)NC3CCCCC3)CC2)cc1,1.7%
CCCOC(=O)c1c(NC(=O)C2C3C=CC(C3)C2C(=O)O)sc2c1CCC(C)C2 (stereo not drawn),?
COc1ccccc1NC(=O)CSc1nnc(COc2ccc(Cl)cc2)n1Cc1ccco1,-6.8%
Cc1ccc(NC(=O)CSc2nc3ccc(NC(=O)c4cccs4)cc3s2)cc1,7.7%

# Rewritten tab-delimited: entries from further up.
Molecule	VDR inhibitor
COc1ccc(-c2cc(-c3cccs3)nc(OC)c2C#N)cc1OC	13.6%
CCCOc1ccc(N2C(=O)CC(NCc3cccnc3)C2=O)cc1 (stereo not drawn)	-7.1%

# (listing goes on)
SMILES,VDR inhibitor
C=C(C)C(=O)Nc1cccc(C2=NOC3(C2)C[C@H](C(N)=O)N(C(=O)CC#N)C3)c1 (stereo partly drawn),-10.4%
CCS(=O)(=O)C1=NN2C(=N)/C(=C\c3ccc(OS(=O)(=O)c4ccccc4)cc3)C(=O)N=C2S1,50.1µM*
CC1(OC(=O)CCc2ccccc2)C(=O)C=C2C=C(c3ccc(C#N)cc3)N(CC3CC3)C=C2C1=O (stereo not drawn),-23.6%
COc1cc(C)ccc1OCCSc1nc2ccc(NC(=O)c3ccc(F)cc3)cc2s1,-0.3%
C/C(=N\NC(=S)NCCc1ccccc1)c1cccs1,-14.5%
Cc1cccc(NC(=S)N(CCN2CCOCC2)Cc2cc3cc4c(cc3[nH]c2=O)OCO4)c1,-17.1%
CN(C)c1ccc2cc(S(=O)(=O)O)cc(O)c2c1,50.1µM*
COc1ccc(C(=O)Cc2ccc(F)cc2)c(OC)c1,12.0%
FC(F)(F)c1cc(-c2ccco2)nc(NCCc2ccccc2)n1,0.3%
CN(Cc1nc(CCc2ccccc2)no1)Cc1cccs1,18.7%
O=C(NCc1ccccc1)C1CCCN(S(=O)(=O)c2ccc(-n3cnnn3)cc2)C1 (stereo not drawn),13.9%
O=C(Oc1ccc2ccc(OC(=O)N3CCCCCC3)cc2c1)N1CCCCCC1,-9.1%
CCOCCCNC(=O)c1c(N)n(-c2ccc(S(N)(=O)=O)cc2)c2nc3ccccc3nc12,10.1%
Cc1ccc2nc(N/C(N)=N/S(=O)(=O)c3ccc([N+](=O)[O-])cc3)nc(C)c2c1,-9.1%
O=C(NCC1CC1)NC(=O)c1c(F)cccc1Cl,1.2%
COCCCN(C(=O)C(C)Oc1ccc(Br)cc1)c1c(N)n(Cc2ccccc2)c(=O)[nH]c1=O (stereo not drawn),-7.5%
O=C(CSc1c[nH]c2ccccc12)N1CCOCC1,7.5%
CCCOc1ccc(-c2c(C(=O)N/N=C(\C)c3ccco3)nnn2-c2nonc2N)cc1,-17.7%
Nc1nc(COc2ccc(Cl)cc2)cs1,-6.9%
CC(C)Cc1cc(C(=O)Nc2sc3c(c2C#N)CCC3)no1,-16.7%
COc1cc(C(=O)NCC(=O)N2CCN(S(=O)(=O)c3ccccc3C(F)(F)F)CC2)cc(OC)c1OC,-8.5%
O=C(c1ccco1)N1CCN(C(=O)C(Cc2ccccc2)NS(=O)(=O)c2cccs2)CC1 (stereo not drawn),19.9%
COc1cc([N+](=O)[O-])ccc1NC(=O)NCc1ccco1,-2.1%
O=C(Cc1ccccc1F)NC1CCSc2ccccc21 (stereo not drawn),1.6%
O=C(Nc1ccccc1Cl)C(=O)c1cn(CC(=O)N2CCOCC2)c2ccccc12,-1.6%
COc1ccc(/C=N\NC(=O)CCc2c(C)n[nH]c2C)c(OC)c1OC,-10.9%
COC(=O)c1cccc(NC(=O)NC2CCCN2S(=O)(=O)c2ccc(Cl)cc2)c1 (stereo not drawn),-10.0%
CC(C)(C)N(NS(=O)(=O)c1ccc(F)cc1)c1ccccc1,44.7µM*
Cc1ccc(/C=N/NC(=O)c2cccc(S(=O)(=O)N3CCOCC3)c2)o1,-9.1%
CCCCc1ccc(NC(=O)COc2cccc3c(=O)n(C)ccc23)cc1,0.2%
Nc1ccccc1SCc1csc(-c2ccc(Cl)cc2)n1,?
CC(C)c1nccn1CCC(=O)O,-9.7%
O=C1c2ccccc2C(=O)N1c1ncn[nH]1,-18.4%
COc1ccc(OC)c(NC(=O)C2CC(=O)N(c3ccccc3)C2)c1 (stereo not drawn),28.1%
Cc1ccc(CN(C(=O)c2ccccc2F)c2ccccn2)o1,14.0%
Cc1cc(Nc2cccc(Cl)n2)n(-c2ccccc2)n1,10.6%
O=C(NCc1ccccc1)C(c1ccccc1)N(C(=O)c1csnn1)C1CCCC1 (stereo not drawn),-20.6%
CSc1ccc(S(=O)(=O)NCC(=O)OCC(=O)N(C)Cc2ccccc2)cc1[N+](=O)[O-],-12.7%
CCCC(=O)Nc1ccccc1NC(=O)c1cc(OC)c(OC)c(OC)c1,3.0%
CCOC(=O)c1nn(-c2ccccc2F)c(C)c1C(C)=O,-4.4%
CC1(C)CC(NC(=O)c2ccccc2Cl)CC(C)(C)N1,7.9%
COc1cc2c3c(c1)C1(C(=O)N3C(C)(C)C=C2C)C(C#N)=C(N)Oc2cc(C)oc(=O)c21 (stereo not drawn),4.7%
Cc1cccc(Oc2ccc3c(c2)Oc2ccccc2NC3=O)c1,-5.5%
CCOc1ccccc1CNC(=O)CCCn1nc(C)c2sc3ccccc3c2c1=O,15.9%
Cc1ccc(C(=O)CNc2nc3c(c(=O)[nH]c(=O)n3C)n2Cc2ccccc2)cc1,-7.7%
C=CCN1C=C(C(=O)c2ccccc2)C(=O)CC1,-12.3%
Cc1ccc(C)c(NC(=O)CN(C)C(=O)c2cc3ccccc3o2)c1,2.3%
CCc1ccc(NC(=O)CSc2nnc(COc3ccc4c(c3)CCCC4)o2)cc1,-4.6%
COc1cc(/C=C/C(=O)NCC(=O)N2CCC(N(C)CCN3CCOCC3)CC2)ccc1OC(C)C,21.6%
CC(CNC(=O)c1ccc(Br)o1)NC(=O)c1ccc(Br)o1 (stereo not drawn),-27.3%
Cn1nc(-c2ccc(N3CCCCC3)c(NC(=O)c3ccc(Cl)cc3)c2)c2ccccc2c1=O,-9.0%
O=C(Nc1ccccc1C(=O)NC(Cc1ccccc1)C(=O)O)c1ccccc1 (stereo not drawn),-2.8%
CCOC(=O)c1c(NC(=O)c2c(Br)cnn2CC)sc(C)c1C,-1.6%
Cc1nc2ccccc2cc1C(=O)N/N=C/c1ccccc1[N+](=O)[O-],12.3%
Cc1c(CC(=O)O)c(=O)oc2c(C)c3occ(-c4ccc(Br)cc4)c3cc12,?
O=C(CSc1nnc(NC(=O)c2cccc(F)c2)s1)NC1CCCC1,6.9%
Cc1ccc(Oc2nc(C(F)(F)F)nc3ccccc23)cc1,-3.4%
CC(C)(C)N1CC(OC(N)=O)C1,-18.7%
CCc1ccccc1NC(=O)C1CCN(S(=O)(=O)c2ccccc2)CC1,-19.3%
COCC1CCN(C(=O)CCc2nnc(C3(c4ccc(Cl)cc4)CCC3)o2)C1 (stereo not drawn),-0.5%

# Four entries from above, with the structure last:
VDR inhibitor	smiles
-28.3%	CCC1CCCCN1CCCNC(=O)C1CCCN(c2ncnc3c2nc2n3CCCCC2)C1 (stereo not drawn)
-8.2%	CCCCCN(C(=O)NC(=O)Nc1ccc(C)cc1)S(=O)(=O)c1ccccc1
13.9%	COCCCn1c(=O)c2sccc2n(Cc2ccc(C)cc2)c1=O
10.6%	Cc1cc(OCC(=O)NC2CCN(Cc3ccccc3)CC2)c2c(C)c(C)c(=O)oc2c1

# Arranged by the number under VDR inhibitor (largest number first): four of the compounds above.
SMILES,VDR inhibitor
Cc1ccc(C)c(NC(=O)CN(C)C(=O)c2cc3ccccc3o2)c1,2.3%
Cc1cccc(Oc2ccc3c(c2)Oc2ccccc2NC3=O)c1,-5.5%
COC(=O)c1cccc(NC(=O)NC2CCCN2S(=O)(=O)c2ccc(Cl)cc2)c1 (stereo not drawn),-10.0%
O=C(/C=C/c1cccs1)N1CCN(c2ccccc2F)CC1,-12.4%

# The listing picks up; the 3 compounds before the break are reprinted first.
SMILES,VDR inhibitor
CC(C)(C)N1CC(OC(N)=O)C1,-18.7%
CCc1ccccc1NC(=O)C1CCN(S(=O)(=O)c2ccccc2)CC1,-19.3%
COCC1CCN(C(=O)CCc2nnc(C3(c4ccc(Cl)cc4)CCC3)o2)C1 (stereo not drawn),-0.5%
CCCNC(=O)CN(Cc1ccccc1F)S(=O)(=O)c1ccc(C)cc1,0.9%
O=C(NCc1ccccn1)Nc1cccc([N+](=O)[O-])c1,33.0%[activator]
O=C(O)CN1C(=O)/C(=C\c2ccccc2OCc2ccc(Cl)cc2)SC1=S,?
CC(C)(C)OC(=O)N1CCC(c2c(C(=O)N3CCc4ccccc4C3)cnn2-c2ccc(Cl)cc2)CC1,11.7%
CCc1ccc(/C=C2\SC(N3CCCC3)=NC2=O)cc1,-19.3%
COc1ccc(C2(N3CCN(c4cccc(C)c4C)CC3)C(=O)c3ccccc3C2=O)cc1,-7.6%
CC(C)CC(C(=O)NC(C)(C)C)N(CC1CCCO1)C(=O)c1snc(C(N)=O)c1N (stereo not drawn),3.4%
N#C/C(C(=O)NCc1ccccc1)=C1\SC(CCO)C(=O)N1c1ccccc1 (stereo not drawn),-21.1%
CCn1c(CSCc2ccc(F)cc2)nnc1SCC(=O)N1CCN(c2ccccc2)CC1,-0.8%
CC(CN1CCOCC1)OC(=O)COc1ccc(F)cc1 (stereo not drawn),-3.7%
O=C(O)CCCNS(=O)(=O)Cc1ccccc1,3.2%
COc1ccc(N(C(=O)CNC(=O)c2cccs2)C(C(=O)NC2CCCC2)c2cccnc2)cc1 (stereo not drawn),7.8%
O=C(COC(=O)c1cccc(O)c1)NCc1ccc2c(c1)OCO2,-4.7%
N#CCCN1CCC(NC(=O)OCc2ccccc2)CCC1=O (stereo not drawn),10.9%
CC(C)NC(=O)[C@@H]1C[C@@]1(C)[C@@H](NC(=O)OCc1ccccc1)c1ccccc1,-1.9%
COc1ccc(-c2cc(C(=O)NCC3CCCO3)c3cc(C(C)C)ccc3n2)cc1 (stereo not drawn),-7.3%
CCOc1ccc(N(C(=O)c2snc(C(N)=O)c2N)C(C(=O)NCC2CCCO2)c2ccc(C)o2)cc1 (stereo not drawn),-20.1%
CCOc1ccc2nc(NC(=O)c3ccco3)sc2c1,1.6%
CCOc1ccccc1NC(=O)c1c(NC(=O)COc2ccccc2)sc2c1CCCC2,-1.2%
C=CCc1ccccc1OCC(O)CNC (stereo not drawn),6.5%
CCOC(=O)C1=C(C)NC(=O)NC1c1c(OCC(=O)N2CCCCC2)ccc2ccccc12 (stereo not drawn),-9.5%
CCOC(=O)N1CCN(C(=O)CCC(=O)N2CCOc3ccc(C)cc32)CC1,0.1%
CS(=O)(=O)N(CC(=O)NCc1ccco1)c1cccc([N+](=O)[O-])c1,3.3%
Cc1ccc2c(c1)N(C(=O)c1ccc(F)cc1)C(C)(C)CC2(C)c1ccccc1 (stereo not drawn),-15.1%
CC[C@@]12C(=O)N(c3cccc(C)c3)C(=O)N1[C@H](c1ccc(Br)cc1)[C@@H]1C(=O)N(C(C)(C)C)C(=O)[C@@H]12,-3.0%

# High-throughput results: PubChem, National Center for Advancing Translational Sciences (NCATS)

# The list is partial; rates above refer to the full screens.
